# Arbovirus inh: antivirals against arbovirus infection, primary screen, cell-based, full library, 10K replicate subset | arbovirus infection cell-based antiviral screen | inhibition, % at 10 µM | hit rate 0.37% among 200,000;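 active = inhibition from about 30%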;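 note: bluetongue infection of BSR cells; cell survival read as ATP light after 72 h; 0% = infected wells without compound and 100% = uninfected wells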
# YopH PTP inh: YopH tyrosine phosphatase inhibitors, primary screen, biochemical, fluorescence Ex485/Em525; inhibition, %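 (about 10 µM by stock and volumes)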; YopH tyrosine phosphatase [Yersinia enterocolitica]; hit rate 0.16% among 140,000; AID 898, 2007;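 active = inhibition of 50% or more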;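 note: controls were vehicle for no effect and minimum signal wells for full effect; inactives centre near -20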
# Mtb growth: M. tuberculosis H37Rv growth inhibitors, H37Rv strain (AID 1626) | M. tuberculosis H37Rv growth inhibition; higher % means a stronger effect | inhibition, % at 10 µM, or IC50 in µM where a hit was titrated | hit rate 0.95% among 220,000;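 active = confirmed in a dose series; inconclusive = inhibition above 80% but not taken into the dose series; inactive = below 80% or under 30% at every dose of the series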;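 note: bacteria incubated seven days before Alamar blue readout; 0% = bacteria only wells and 100% = bacteria with antibiotic wells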
# Mtb betalactam: beta-lactam sensitization of Mtb H37Rv, H37Rv | M. tuberculosis H37Rv growth with meropenem, percent inhibition; hits of this screen are not shown here | inhibition, % at 25 µM | hit rate 0.27% among 330,000;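 active = about 74% or more and at least 40 points above the plate without the antibiotic, then above 30% in a dose series; inconclusive = first-round hits that could not be retested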;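 note: growth measured after seven days incubation then overnight dye step; 0% = bacteria only wells and 100% = bacteria with antibiotic; twin plates without the antibiotic show which effects depend on it; some results filed as inactive read as strong as hits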
# RecA splice inh: Mtb RecA intein splicing inhibitors, primary screen, biochemical, fluorescence, HTS. Protein RecA (Mycobacterium tuberculosis (strain ATCC 25618 / H37Rv)), P9WHJ3. cell-free RecA intein splicing. inhibition, %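 (about 9 µM by stock and volumes)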. hit rate 0.75% among 290,000; in the data active = inhibition above about 30%; inconclusive = no clear call, values can overlap the other calls;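 note: 0% = vehicle wells and 100% = reference inhibitor control wells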
# Target sequence (P9WHJ3 whole entry, looked up, canonical isoform): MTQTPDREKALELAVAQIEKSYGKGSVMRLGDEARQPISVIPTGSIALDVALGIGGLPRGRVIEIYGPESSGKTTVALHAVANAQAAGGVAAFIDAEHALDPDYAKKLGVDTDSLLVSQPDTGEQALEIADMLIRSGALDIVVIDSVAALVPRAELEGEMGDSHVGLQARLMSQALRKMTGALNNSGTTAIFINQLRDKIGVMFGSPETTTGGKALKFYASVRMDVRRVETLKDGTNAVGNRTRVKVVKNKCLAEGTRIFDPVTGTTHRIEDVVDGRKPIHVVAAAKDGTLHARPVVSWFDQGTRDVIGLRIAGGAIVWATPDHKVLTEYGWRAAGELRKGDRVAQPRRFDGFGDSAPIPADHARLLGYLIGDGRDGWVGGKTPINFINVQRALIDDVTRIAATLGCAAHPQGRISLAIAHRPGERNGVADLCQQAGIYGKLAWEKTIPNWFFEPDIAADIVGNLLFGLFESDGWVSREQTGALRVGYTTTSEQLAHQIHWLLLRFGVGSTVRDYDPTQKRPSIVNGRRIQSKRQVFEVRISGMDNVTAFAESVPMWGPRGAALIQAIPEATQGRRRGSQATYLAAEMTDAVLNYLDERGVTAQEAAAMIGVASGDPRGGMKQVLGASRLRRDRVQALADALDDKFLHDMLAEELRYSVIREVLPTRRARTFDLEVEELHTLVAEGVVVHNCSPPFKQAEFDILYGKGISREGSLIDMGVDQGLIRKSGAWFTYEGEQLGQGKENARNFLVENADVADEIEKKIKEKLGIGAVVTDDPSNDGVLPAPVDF
# Arbovirus inh repeat: recorded beside Arbovirus inh, whose call it bears; inhibition, %; measured here: 10K subset replicate screen; many hits read low in the repeat;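 first of two repeat runs on a subset; 0% = infected and 100% = uninfected wells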
# The depositor's hits bear a star; u = inconclusive; x = no result given; & = joins results of further samples. Only part of the results is shown, so the mix of outcomes need not match the whole.
SMILES,Arbovirus inh,YopH PTP inh,Mtb growth,Mtb betalactam,RecA splice inh,others
O=C(N/N=C/c1ccco1)c1ccc(NC(=O)c2ccc(Cl)cc2)cc1,x,x,x,-2.6,-2.2,
COc1ccc(C(=O)N2CCN(Cc3cc(OC)c(O)c(OC)c3)CC2)cc1OC,7.3,-22.9,-1.9%,-0.6,-4.5,
O=C(c1cccc(S(=O)(=O)N2CCCC2)c1)c1cccc(S(=O)(=O)N2CCCC2)c1,6.3,-34.2,-4.3%,0.3,1.0,Arbovirus inh repeat=3.9
O=C(NNc1cccc(Cl)n1)Nc1ccc(Cl)cc1,-2.1,-74.8,0.0%,2.9,8.0,
O=C(Nc1ccc(Oc2ccccc2)cc1)c1cnc2n(c1=O)CCS2,12.9,-43.3,6.8%,5.1,-0.5,Arbovirus inh repeat=3.1
COCCNC(=O)C1CC(c2ccc(C(F)(F)F)cc2)=NO1 (configuration not stated),x,x,-9.9%,-3.1,1.4,
CCOc1ccc2nc(SCC(=O)Nc3ncccn3)[nH]c2c1,1.9,-9.5,x,3.1,0.9,
COC(=O)c1ccc(CN(C)S(=O)(=O)c2ccc(C)cc2)o1,-4.4,x,-4.5%,1.2,-1.9,
COc1ccc(CNC(=O)C2CCN(S(=O)(=O)c3cccc4nsnc34)CC2)cc1,x,x,x,3.3,-1.1,
CC#CC[N+](C)(C)CCCCCC,x,x,-4.5%,14.4,11.4,
COc1ccccc1N1CCN(C(CNC(=O)C2CCCCC2)c2cccnc2)CC1 (configuration not stated),-3.0,-21.3,2.9%,1.2,6.2,Arbovirus inh repeat=0.8
N#Cc1ccc(-c2ccc(OCC3CNC(=O)O3)cc2)cc1 (configuration not stated),x,x,x,3.4,2.4,
O=C(NCCN1CCOCC1)C1CCC(=O)N1C1CCCCC1 (configuration not stated),3.1,-7.0,-8.8%,-5.2,x,
O=C(N/N=C/c1ccc(OCc2cnc(Cl)s2)cc1)c1ccncc1,-2.6,x,u,98.5,3.7,
CCC(C)c1ccc(O)c(NC(=O)c2cncc(Br)c2)c1 (configuration not stated),18.8,7.6,-12.2%,-0.9,2.6,
Cn1c(=O)c2c(nc(CN3CCN(Cc4ccccc4)CC3)n2Cc2ccccc2)n(C)c1=O,-8.1,-28.3,1.6%,x,x,Arbovirus inh repeat=-7.5
COc1ccc(NC(=O)c2cc(Br)ccc2Cl)c([N+](=O)[O-])c1,-14.3,x,3.2%,2.3,4.2,
Cc1ccc2c(Cl)c(C(=O)NCc3cccnc3)sc2c1,0.7,-41.8,5.5%,8.1,1.0,
COc1ccc(CC(=O)NNC(=O)CSc2nnc(C)n2-c2ccccc2)cc1,-1.7,-8.4,1.4%,-7.2,0.0,
COc1ccc(N2CCN(CC(O)c3c[nH]c4ccc(OC)cc34)CC2C)cc1 (configuration not stated),5.6,-12.5,-1.2%,0.9,-0.6,
CCC(=O)N(C)C(c1ccccc1Cl)c1nnnn1-c1c(C)cccc1C (configuration not stated),-0.4,-37.6,-11.7%,6.1,0.1,
CC1CN(c2ccc([N+](=O)[O-])cn2)CC(C)O1 (configuration not stated),x,x,-1.9%,-11.2,2.2,
Cc1cc(C)nc(NC(=O)/C=C/c2ccc(Cl)cc2)n1,x,x,-4.3%,3.7,-7.3,
N#Cc1c(NC(=O)CSc2n[nH]c(N)n2)oc(-c2ccccc2)c1-c1ccccc1,-12.0,4.5,-6.4%,3.1,14.3,
COc1ccc(C2C(C#N)=C(N)Oc3cc(C)[nH]c(=O)c32)cc1OC (configuration not stated),x,x,1.8%,-4.2,-1.3,
# The listing continues:
SMILES,Arbovirus inh,YopH PTP inh,Mtb growth,Mtb betalactam,RecA splice inh,others
O=C(CSc1nnc(Cc2ccccc2)o1)c1ccc(F)cc1,x,x,6.2%,87.5,0.2,
Cc1ccnc(NC(=O)c2cccc3ccccc23)c1,x,x,x,u,1.2,
CCc1nnc(NC(=O)c2cccc(S(=O)(=O)N(C)c3ccccc3)c2)s1,2.0,0.9,x,2.5,-1.4,
COc1cc(C2C3=C(Nc4nc(N)[nH]c(=O)c42)c2ccccc2C3=O)ccc1O (configuration not stated),x,x,-2.3%,-8.1,-4.0,
COc1c(Cl)cccc1-c1cn2ccc(C)cc2n1,x,x,0.7%,8.3,-1.1,
COc1ccc(OC)c(/C=N\NC(=O)c2ccc(=O)n(C)c2)c1,2.4,-21.3,-5.7%,-3.1,-2.8,
Cc1ccc(-c2noc(CCC(=O)Nc3ccccc3N3CCN(C)CC3)n2)cc1,-11.1,-27.3,-3.7%,-2.5,-4.1,
Cc1ccccc1C(=O)Nc1ccccc1-n1cccc1,9.9,-15.1,0.8%,79.1,2.5,
Cc1ccc2c(CN3CC=C(c4ccccc4)CC3)cc(=O)oc2c1C,10.0,-19.6,-2.9%,3.7,5.3,
Cc1cccc(C(=O)NNC(=O)c2ccc(F)cc2)c1,-1.8,-30.9,3.6%,6.9,x,
Cc1cc(C)nc(SCC(=O)c2ccc(O)cc2O)n1,8.1,-55.5,6.9%,-4.1,6.2,Arbovirus inh repeat=0.3
CCN(CC)CCCNC(=O)c1ccc(CS(=O)(=O)c2ccccc2OC)o1,x,x,x,-0.8,-0.5,
COc1ccc(S(=O)(=O)N2CCCCC2)cc1,5.0,-28.5,1.1%,-11.0,-1.9,
O=C(Oc1ccc2ccc(=O)oc2c1)N1CCOCC1,-3.0,-40.0,x,-3.4,-2.5,
C(=N\N(c1ccccc1)c1ccccc1)/c1ccccn1,x,x,x,6.2,20.2,
O=C(CN1CCN(c2ccccc2O)CC1)NC(=O)NC1CCCC1,3.9,x,0.0%,2.4,-3.5,
CCOC(=O)c1cc(OC(=O)c2ccccc2OC)n(-c2ccccc2)n1,-0.5,-34.4,-0.5%,8.5,-4.0,
O=C(Cn1cnc2c(nnn2Cc2ccc(Cl)cc2)c1=O)N1CCCc2ccccc21,-0.1,-7.3,-0.5%,2.0,-1.9,
Cc1c(C(=O)NC(=S)Nc2ccc(NC(=O)c3cccs3)cc2)oc2ccccc12,x,x,x,5.8,-2.9,
CN(Cc1cccc(C(F)(F)F)c1)C(=O)C1CCC(=O)N(CC2CCCCC2)C1 (configuration not stated),x,x,x,0.1,-0.6,
COc1ccc(NS(=O)(=O)c2cc(OC)ccc2OC)cc1,x,x,x,-4.3,1.1,
CCC(C)N1C(=O)N(C)C2NC(=O)NC21 (configuration not stated),4.2,x,-2.2%,4.6,0.6,
Cc1cccc(-n2c(C)nc3ccc(Cl)cc3c2=O)c1,x,x,x,-1.2,-1.0,
CCOC(=O)C1(CCCc2ccccc2)CCN(Cc2cnn(C)c2)CC1,-15.3,x,1.0%,-5.2,0.4,
CCCCCc1cc(=O)oc2c(C(CCN3CCCC3)c3ccc(N(C)C)cc3)c(OC)cc(OC)c12 (configuration not stated),x,x,4.38µM*,100.3,16.6,
# Other structures:
SMILES,Arbovirus inh,YopH PTP inh,Mtb growth,Mtb betalactam,RecA splice inh,others
COc1cc(C(=O)NCCCOC(C)C)ccc1OC1CCN(C(C)=O)CC1,x,x,x,2.7,2.3,
O=C(NCc1cccs1)c1cccn2c(=O)c3sccc3nc12,-5.2,x,0.2%,-0.6,-6.1,
COCC(=O)N1CCc2ccc(NC(=O)c3ccc(C(F)(F)F)cc3)cc2C1,x,x,x,-1.9,6.0,
CCn1c(O)c(C=NCc2cccs2)c(=O)n(CC)c1=S,2.5,6.8,-11.3%,1.5,0.8,
O=C(NCc1n[nH]c(=S)n1-c1cccc(Cl)c1)c1ccc(S(=O)(=O)N2CCCC2)cc1,0.9,-17.3,-0.3%,3.1,-0.4,
CCOC(=O)C1(Cc2cccc(OC)c2)CCN(C(C)COC)CC1 (configuration not stated),-6.1,x,4.2%,4.7,0.1,
COc1ccccc1Nc1nc(Cl)nc(NC(C)(C)C)n1,-2.5,x,3.6%,-1.4,10.2,
Cc1ccc(C)[n+](CC(=O)c2ccc(-c3ccccc3)cc2)c1,0.3,x,5.8%,5.4,7.3,
COc1cccc(-c2noc(C3CCCN(S(=O)(=O)c4cccc(Cl)c4C)C3)n2)c1 (configuration not stated),2.9,-6.0,-1.1%,-6.0,4.6,
NC(=O)c1oc2ccccc2c1NC(=O)c1ccc(F)cc1,3.9,-11.7,-6.6%,-4.6,-3.1,
CCN(CC)c1ccc(N=Nc2nn(C)c(C)c2[N+](=O)[O-])cc1,-7.4,-36.8,7.1%,55.8,-1.4,
CCCCn1c(SCC(=O)c2ccc(OC)c(OC)c2)nc2cc(S(N)(=O)=O)ccc21,1.5,-14.0,7.0%,1.8,0.2,
CN(C)CCSc1nnc2sc3ccccc3n12,5.7,1.4,0.2%,-3.8,3.9,
CCOC(=O)Cc1nn(Cc2nc(-c3ccc(C#N)cc3)cs2)c(=O)c2ccccc12,x,x,-9.7%,0.5,3.2,
COc1ccc(NS(=O)(=O)c2cccc(NC(=O)NC3CCCCC3)c2)cc1,-0.3,-47.3,-5.9%,1.1,6.5,
COc1ccc(C(=O)Nc2sc(C)c(-c3ccccc3)c2C#N)cc1OC,-9.6,8.9,1.7%,4.5,x,
CCOC(=O)C1(CC2CC2)CCN(Cc2ccc3cccc(F)c3n2)CC1,6.6,x,2.3%,-5.3,1.2,
CC1(C)O[C@@H]2[C@@H](CO[C@@]3(COS(N)(=O)=O)OC(C)(C)O[C@@H]23)O1,9.8,x,-14.9%&1.4%,-6.8,-0.2,
CCOC(=O)C1C(=O)CC(C)(O)C(C(=O)OCC)C1c1cc(Br)ccc1OC (configuration not stated),2.7,-29.5,-2.7%,-2.3,2.1,
COCC(=O)N(c1ccc(C(C)C)cc1)C1C=CS(=O)(=O)C1 (configuration not stated),4.4,-20.8,-3.5%,4.1,-1.0,
Cc1ccc(C(=O)Nc2ccc(S(=O)(=O)N3CCOCC3)cc2)cc1,-4.3,x,-4.6%,-2.8,-1.4,
CCc1cccc(N(C(=O)c2csnn2)C(C(=O)NC(C)(C)C)c2ccncc2)c1 (configuration not stated),9.4,x,-10.7%,5.3,-0.2,
CCOC(=O)CN1C(=O)N[C@@H](c2ccco2)C(C(=O)OC)=C1C,x,x,-6.4%,-4.5,-0.2,
N#CCSC1=Nc2ccccc2C2=NC(CCC(=O)N3CCN(c4ccccc4)CC3)C(=O)N12 (configuration not stated),1.1,-1.4,-2.0%,-8.8,0.5,
COc1ccc(CNc2c(CO)cnc3c2cnn3C)cc1,-5.6,x,4.2%,-7.0,0.9,

# Molecules shown so far with a nitro group on carbon, in the order listed:
SMILES,Arbovirus inh,YopH PTP inh,Mtb growth,Mtb betalactam,RecA splice inh,others
COc1ccc(NC(=O)c2cc(Br)ccc2Cl)c([N+](=O)[O-])c1,-14.3,x,3.2%,2.3,4.2,
CC1CN(c2ccc([N+](=O)[O-])cn2)CC(C)O1 (configuration not stated),x,x,-1.9%,-11.2,2.2,
CCN(CC)c1ccc(N=Nc2nn(C)c(C)c2[N+](=O)[O-])cc1,-7.4,-36.8,7.1%,55.8,-1.4,

# (next part)
SMILES,Arbovirus inh,YopH PTP inh,Mtb growth,Mtb betalactam,RecA splice inh,others
O=C(COC(=O)c1cccc(S(=O)(=O)N2CCc3ccccc32)c1)Nc1ncc(C(F)(F)F)cc1Cl,-7.8,-21.1,-11.3%,-7.4,1.0,
CC(C)(C)S(=O)(=O)c1nc2ccccc2s1,7.8,-33.7,1.6%,0.8,0.4,
Cc1ccc(-c2cnc(SCC(=O)N3CCCc4ccccc43)n2C)cc1,2.4,-18.5,10.2%,59.4,x,
CC(C)Oc1ccc(/C=C(/NC(=O)c2ccccc2)C(=O)NCCC(=O)O)cc1,8.1,x,4.6%,-2.5,5.0,
O=C(Nc1nc(-c2ccc(S(=O)(=O)N3CCCC3)cc2)cs1)c1ccco1,-3.1,-22.5,7.6%,11.5,-1.1,
O=c1[nH]cc(COCc2ccccc2)c(=O)[nH]1,2.6,-20.3,-6.1%,u,0.1,
CCN(CC)C(=O)c1cccc2c1C(=O)c1ccccc1-2,-0.8,-77.8,-6.7%,-0.8,x,
O=C1c2ccccc2N(Cc2ccc(Cl)cc2)C2=NCCN12,4.5,-19.0,6.2%,-0.6,1.5,
COc1ccc([C@@H]2C=C(C(=O)O)O[C@H](OCCCCO)C2)cc1,x,x,-0.8%,2.2,1.3,
O=C(Nc1nccs1)c1c(O)c2c([nH]c1=O)CCCC2,x,x,8.5%,-2.8,-2.0,
Cc1nn(-c2ccccc2)c(N2CCCC2)c1/C=C1\N=C(c2ccc(F)cc2)OC1=O,1.4,-27.9,2.0%,x,-0.2,
Cc1cc(S(=O)(=O)Nc2ccc(C(=O)NCCCn3ccnc3)cc2)ccc1F,x,x,x,4.8,-4.9,
CC1(C)Cc2c(c(N3CCOCC3)nc3sc(C(=O)Nc4ccc(Cl)cc4)c(N)c23)CO1,x,x,x,2.6,-0.2,

# Screening data deposited in PubChem BioAssay by several laboratories.
